Lassa entry inh: inhibitors of Lassa virus binding or cell entry | Lassa virus pseudotype entry inhibition, cell reporter; control for the full effect not named in the record | Potency, µM (doses to about 37.9 µM), for the others: top-dose activity change, negative = inhibition, most hits filed as inhibitors | 300,000 tested, 1.2% active | AID 540256; active means well fitted inhibition curve with a large enough effect; inconclusive means small, poorly fitted or top-dose-only effect, or effect the other way; inactive means flat fitted curve, though single readings scatter; tested in HEK293 cells; further: on the % scale 0 is the no-effect control and ±100 the full control effect; nearly all actives have a fitted effect of over 50% in size; luciferase read-out
StopGo reporter: FMDV 2A StopGo reporter, luciferase signal; human cells with a luciferase reporter of 2A StopGo recoding; control for the full effect not named in the record; Potency, µM (highest dose often 57.9 µM), for inactives: at the top dose signal change, negative = less light; 410,000 tested, 1.2% active; active = well fitted falling curve with a large enough effect; inconclusive = small, poorly fitted or top-dose-only effect; inactive = no such curve, though single readings can be large or run the other way; tested in HEK293T cells; further: on the % scale 0 is the no-effect control and ±100 the full control effect; nearly all actives have a fitted effect of over 45% in size; luciferase light after 4 h
RE007 growth inh: less growth of the S. pombe RE007 Vpr strain. 360,000 tested, 0.21% active. S. pombe RE007 Vpr strain, BacTiter-Glo ATP luminescence, 24 h; control for the full effect not named in the record. Potency, µM (highest dose often 92.2 µM), inactives show top-dose activity change, negative = less growth; active = well fitted falling curve with a large enough effect; inconclusive = small, poorly fitted or top-dose-only effect; inactive = no such curve, though single readings can be large or run the other way;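 further: on the % scale 0 is the no-effect control and ±100 the full control effect; nearly all actives have a fitted effect of over 50% in size; the assay follows cell death caused by Vpr and the record does not say whether a fall means rescue or toxicity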
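Fission yeast strain RE007, carrying one chromosomally integrated HIV-1 vpr copy, was seeded at OD 0.01 in PMG+AL medium with 23 nL pinned compound. After 24 h at 30 °C and 99% humidity, viability was read by BacTiter-Glo luminescence.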
Cruzain noTriton: cruzain (T. cruzi) inhibition without detergent; purified cruzain, Z-FR-AMC fluorescence, no detergent; P25779; Potency, µM, without a hit: max response, negative = inhibition, actives largely listed as inhibitors; 200,000 tested, 2.3% active; AID 1476;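 further: plate controls were enzyme without inhibitor for no effect and buffer without enzyme for full effect; nearly all actives have a fitted effect of over 40% in size; top concentration of the series not given in the record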
Target sequence (P25779 123-467 limits assumed): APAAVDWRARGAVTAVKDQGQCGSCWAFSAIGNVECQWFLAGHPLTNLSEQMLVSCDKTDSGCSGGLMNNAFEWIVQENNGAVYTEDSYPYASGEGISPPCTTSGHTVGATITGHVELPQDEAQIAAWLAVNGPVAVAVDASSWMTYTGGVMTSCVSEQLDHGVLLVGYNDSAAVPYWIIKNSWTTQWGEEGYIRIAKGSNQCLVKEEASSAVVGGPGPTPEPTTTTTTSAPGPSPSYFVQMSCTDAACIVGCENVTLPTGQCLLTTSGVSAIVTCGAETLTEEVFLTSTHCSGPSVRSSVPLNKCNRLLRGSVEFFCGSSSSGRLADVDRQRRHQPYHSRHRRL
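Detergent-free condition (0.00005% Triton X-100) in acetate buffer pH 5.5 with DTT. 1.5 nM enzyme and compound were pre-mixed 15 min, then 2 uM Z-FR-AMC substrate added; reaction progress from fluorescence change between first and third reads (60 s).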
SARS PLP yeast: SARS-CoV PLP inhibition in yeast | 330,000 tested, 0.19% active | S. cerevisiae expressing SARS-CoV PLpro, growth rescue; control for the full effect not named in the record | Potency, µM (series often up to 32.9 µM), without a hit: at the top dose activity, positive = growth rescue; active means well fitted rising curve with a large enough effect; inconclusive means small, poorly fitted or top-dose-only effect; inactive means no such curve, though single readings can be large or run the other way; further: 0% is about no effect; nearly all actives have a fitted effect of over 55% in size; growth read by luminescence after 48 h
NS1 function inh: inhibitors of influenza NS1 protein function; 270,000 tested, 0.4% active; S. cerevisiae slowed by influenza A NS1, growth recovery by OD600; Potency, µM (highest dose often 46.1 µM), for inactives: at the highest dose activity, positive = more growth; active means well fitted rising curve with a large enough effect; inconclusive means small, poorly fitted or top-dose-only effect; inactive means no such curve, though single readings can be large or run the other way; further: nearly all actives have a fitted effect of over 50% in size
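S. cerevisiae expressing influenza A NS1, grown in glucose, washed, then diluted 1:100 into pH 6.0 -URA galactose medium with 23 nl compound. Growth recovery read as OD600; NS1-free strain serves as control.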
Cruzain Triton: cruzain (T. cruzi) inhibition with detergent | P25779 | purified cruzain, Z-FR-AMC fluorescence, 0.01% Triton | Potency, µM, without a hit: max response, negative = inhibition, actives largely listed as inhibitors | 200,000 tested, 0.43% active | AID 1478;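 further: plate controls were neutral wells for no effect and buffer without enzyme for full effect; nearly all actives have a fitted effect of over 40% in size; top concentration of the series not given in the record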
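Detergent-containing run (0.01% Triton X-100) in acetate buffer pH 5.5 with 5 mM DTT: enzyme at 1.5 nM final, 15 min compound preincubation at room temperature, then 2 uM Z-FR-AMC substrate. Activity taken as 60 s fluorescence increase at 360/450 nm.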
Marburg entry inh: inhibitors of Marburg virus binding or cell entry. AID 540276. 300,000 tested, 1.8% active. Marburg virus pseudotyped entry inhibition, cell reporter; control for the full effect not named in the record; about a third of the inactives were read at about 46 µM. Potency, µM (titrated, usually from 37.8 µM), inactives show at the highest dose activity change, negative = inhibition, usual class: inhibitors; active = well fitted inhibition curve with a large enough effect; inconclusive = small, poorly fitted or top-dose-only effect, or effect the other way; inactive = flat fitted curve, though single readings scatter; tested in HEK293 cells; about a fifth of its hits are not listed in these tables; further: on the % scale 0 is the no-effect control and ±100 the full control effect; luciferase read-out
Active calls of the source: *; ? = inconclusive; . = not tested or not shown; [ ] = another dose, or the depositor's remark. Unless noted, the call rests on the fitted dose curve; in most records, active means well fitted curve in the direction sought with a large enough effect; inconclusive means small, poorly fitted or top-dose-only effect, or another doubt; inactive means no such curve, though single readings can be large; an effect the other way counts as inactive or inconclusive. Potency means the concentration at half of the fitted maximal effect.

SMILES	Lassa entry inh	StopGo reporter	RE007 growth inh	Cruzain noTriton	SARS PLP yeast	NS1 function inh	Cruzain Triton	Marburg entry inh
Cc1ccc(-c2cc(C(=O)NCCCn3ccnc3)c3cc(Br)ccc3n2)o1	1%	-23%	-8%	?	2%	-31%	-14%	?
N#CC(c1ccccc1)c1cccc(Cl)n1 (stereo not given)	-4%[46.1 µM]	4%	18%	.	0%	5%	.	-8%[46.1 µM]
CCNc1c([N+](=O)[O-])c(=O)n(CC)c2ccccc12	-1%[46.1 µM]	24%	9%	.	0%	2%	.	1%[46.1 µM]
N#Cc1c(NCCO)nc(NCc2ccccc2)c2c1CCN(Cc1ccccc1)C2	-7%	19%	4%	1%	1%	-8%	-3.1%	?
Cn1c(NC(=O)CC2CCCCC2)cc(=O)n(C)c1=O	.	5%	16%	.	0%	-3%	.	.
Cc1cnc(NC(=O)CSc2nnc(-c3cccs3)n2C)s1	?	12%	6%	5%	-1%	-3%	1.4%	-5%
CCCCc1nnc(NC(=O)C2=COCCO2)s1	-3%[46.1 µM]	27%	-1%	.	-6%	5%	.	?
CC(C)N1CCN(Cc2cccn2-c2cccnc2)CC1CCO (stereo not given)	-24%	-4%	-12%	.	-1%	1%	.	2%[46.1 µM]
CC(=O)Nc1ccc(S(=O)(=O)NNC(=O)c2cc3c4ccccc4n(C)c3s2)cc1	-7%	-25%	-18%	-20%	1%	11%	22µM*	-22%
CCOc1ccc(S(=O)(=O)N/N=C(\C)c2ccc(Cl)c(Cl)c2Cl)cc1	-1%	0%	19%	-2%	-16%	-7%	-6.0%	16%
Cc1ccc2c(c1C)OC(=O)CC2c1ccccc1 (stereo not given)	-7%[46.1 µM]	0%	-20%	.	-1%	-15%	.	1%[46.1 µM]
Cc1cc(C)n2nc(C(=O)Nc3cccnc3)nc2n1	3%	6%	10%	3%	1%	-34%	4.9%	?
CC(C)c1ccc(NC(=O)c2ccc3c(c2)CCCN3S(C)(=O)=O)cc1	-24%[46.1 µM]	10µM*	.	?	.	.	-9.3%	?
COc1ccc(C)cc1NC(=O)NC1CCCc2ccccc21 (stereo not given)	12%[46.1 µM]	11%	5%	.	1%	6%	.	2%[46.1 µM]
COCCNC(=O)CN(Cc1ccc(OC)cc1)C(=O)CCC(=O)Nc1nccs1	19%[46.1 µM]	-5%	18%	.	18%	-2%	.	-2%[46.1 µM]
Cc1ccc(C(=O)N2CCN(c3ccccc3)CC2)cc1C	-3%	.	-14%	-3%	-2%	-10%	-0.2%	-1%
CCOCc1nnc(NC(=O)c2cc(OC)c(OC)cc2[N+](=O)[O-])s1	10%	-3%	3%	.	2%	10%	.	13%[46.1 µM]
O=C(CSc1ncccn1)Nc1cccc(S(=O)(=O)N2CCOCC2)c1	20%	4%	3%	.	-3%	.	.	11%
COCCCNC(=O)c1sc2nc(C)c(C(=O)Nc3ccc(C)cc3C)c(-c3ccccc3Cl)c2c1N	?	-25%	.	?	.	.	-9.2%	?
CN(Cc1ccccc1)C(=O)c1ccc(NC2=NC3CS(=O)(=O)CC3S2)cc1 (stereo not given)	.	-8%	11%	.	3%	-9%	.	.
COc1ccc(-c2cnnc(N/N=C/c3ccc(C)o3)n2)cc1	?	-12%	6%	.	0%	2%	.	-17%[14.2 µM]
COC(=O)c1cc(OC)c(OC)cc1NC(=O)c1csc(C)c1	-14%[46.1 µM]	-19%	1%	.	?	20%	.	-14%[46.1 µM]
COC(=O)CCSCC(=O)Nc1ccc(C)c(S(=O)(=O)N2CCCCC2)c1	.	-13%	3%	.	-2%	-10%	.	.
COc1ccc(Cl)cc1NC(=O)C1Cc2cc(S(=O)(=O)N3CCCC3)ccc2N1C(C)=O (stereo not given)	-27%[46.1 µM]	19%	2%	.	2%	2%	.	?
O=C(N/N=C/c1ccc(O)cc1)c1cc(C2CC2)[nH]n1	21%[46.1 µM]	18%	0%	.	0%	0%	.	0%[46.1 µM]
CCOC(=O)N1CCC(N2CCN(S(=O)(=O)c3ccc(C)cc3)CC2)CC1	-2%	-23%	31%	-2%	7%	-6%	-1.8%	1%
CCOc1ccc(CCNC(=O)CSc2n[nH]c(N)n2)cc1OCC	11%	-24%	5%	.	7%	18%	.	25%
Cc1cccc(C)c1NC(=O)CSC(=S)N1CCCC1	?	-11%	1%	.	1%	.	.	-10%[46.1 µM]
Cc1cc(C)c(C#N)c(=N)o1	-2%	?	?	-10%	7%	-87%	-2.5%	1%
Cc1cccc(CN2CCCC(C(=O)N3CCc4ccccc4C3)C2)c1 (stereo not given)	?	26%	14%[3.69 µM]	5%	5%	-9%	1.0%	11%

Molecules shown so far with a halogen, in the order listed:
SMILES	Lassa entry inh	StopGo reporter	RE007 growth inh	Cruzain noTriton	SARS PLP yeast	NS1 function inh	Cruzain Triton	Marburg entry inh
Cc1ccc(-c2cc(C(=O)NCCCn3ccnc3)c3cc(Br)ccc3n2)o1	1%	-23%	-8%	?	2%	-31%	-14%	?
N#CC(c1ccccc1)c1cccc(Cl)n1 (stereo not given)	-4%[46.1 µM]	4%	18%	.	0%	5%	.	-8%[46.1 µM]
CCOc1ccc(S(=O)(=O)N/N=C(\C)c2ccc(Cl)c(Cl)c2Cl)cc1	-1%	0%	19%	-2%	-16%	-7%	-6.0%	16%
COCCCNC(=O)c1sc2nc(C)c(C(=O)Nc3ccc(C)cc3C)c(-c3ccccc3Cl)c2c1N	?	-25%	.	?	.	.	-9.2%	?
COc1ccc(Cl)cc1NC(=O)C1Cc2cc(S(=O)(=O)N3CCCC3)ccc2N1C(C)=O (stereo not given)	-27%[46.1 µM]	19%	2%	.	2%	2%	.	?

Next compounds
SMILES	Lassa entry inh	StopGo reporter	RE007 growth inh	Cruzain noTriton	SARS PLP yeast	NS1 function inh	Cruzain Triton	Marburg entry inh
Cc1nc(-c2ccc(C(F)(F)F)cc2)sc1C(=O)NN	?	18%	?	.	1%	3%	.	?
COc1ccc(-c2nnc(SCC(=O)O)n2C)cc1OC	-8%[46.1 µM]	8%	-10%	.	1%	3%	.	?
COc1ccc(C2CC3(CC(C)(C)NC(=O)N3)Oc3cc(O)ccc32)cc1 (stereo not given)	11%	-1%	13%[3.69 µM]	3%	1%	-17%	6.4%	3%
COC(=O)c1ccccc1NC(=O)c1cnn2c(C)cc(C)nc12	0%	-37%	10%	.	0%	-4%	.	-1%
CCN(CC)c1ccc(NC(=O)/C=C\c2ccccc2Cl)cc1	-7%	.	6%	25µM*	-17%	8%	-9.7%	11%
COc1ccc(CC(=O)N(C)Cc2ccc(Cl)cc2)cc1S(=O)(=O)N1CCOCC1	-22%	?	-4%	.	4%	.	.	-10%
Cc1cc(C(=O)NNC(=O)C(CCC(N)=O)NS(=O)(=O)c2ccc(Cl)cc2)c(C)o1 (stereo not given)	9%[46.1 µM]	1%	-10%	.	4%	.	.	-6%[46.1 µM]
CSc1ccc(C2(O)Cc3cccc[n+]3C2c2ccccc2)cc1 (stereo not given)	?	-8%	-6%	.	4%	1%	.	8%
O=C(NCc1ccccc1)[C@@H]1CSC2c3ccccc3C(=O)N21 (stereo not given in full)	4%	7%	8%	-8%	-6%	2%	-6.9%	-25%
Cc1ccc(NC(=O)N2CCC(O)(c3cccnc3)CC2)cc1	9%	6%	25%	-3%	1%	5%	2.2%	-3%

3 compounds from above with just Cruzain Triton, RE007 growth inh and NS1 function inh:
mol | Cruzain Triton | RE007 growth inh | NS1 function inh
COc1ccc(-c2nnc(SCC(=O)O)n2C)cc1OC | . | -10% | 3%
COc1ccc(C2CC3(CC(C)(C)NC(=O)N3)Oc3cc(O)ccc32)cc1 (stereo not given) | 6.4% | 13%[3.69 µM] | -17%
COC(=O)c1ccccc1NC(=O)c1cnn2c(C)cc(C)nc12 | . | 10% | -4%

New compounds follow:
SMILES	Lassa entry inh	StopGo reporter	RE007 growth inh	Cruzain noTriton	SARS PLP yeast	NS1 function inh	Cruzain Triton	Marburg entry inh
CC1C(=O)N2CCCc3cc(NS(=O)(=O)c4ccccc4)cc1c32 (stereo not given)	1%	-5%	-8%	.	0%	.	.	-8%
COc1cc(/C=C/C(=O)c2ccc(O)cc2)ccc1OCC#N	1.6µM*	28µM*	-4%	4%	-9%	-7%	18%	?
Cn1c(O)c(C=NC2CC(C)(C)NC(C)(C)C2)c(=O)n(C)c1=O	9%	.	-17%	0%	11%	2%	7.2%	14%
O=C(Cc1nnc(NC(=O)Nc2ccc(F)cc2)s1)NCc1ccccc1	6%[46.1 µM]	-8%	9%	.	1%	4%	.	?
Cc1ccc(S(=O)(=O)c2c(N)n(Cc3ccco3)c3nc4ccccc4nc23)cc1	?	36%[activator]	0%	-7%	6%	27%	-3.7%	?
CCC(C(=O)NCC1CCCO1)N(C(=O)c1snc(C(N)=O)c1N)c1ccc(Cl)cc1 (stereo not given)	?	24%	-8%	.	3%	-3%	.	1%
CC(C)=CCC/C(C)=C/C=N/NC(=O)c1cccc([N+](=O)[O-])c1	0%	-16%	-11%	10%	15%	5%	-8.9%	7%

Assay outcomes from PubChem BioAssay.
